High-throughput results: PubChem, Center for Chemical Genomics, University of Michigan
CDC25B-CDK2 inh – human CDC25B-CDK2/CyclinA binding inhibition; HTRF CDC25B-CDK2/CyclinA binding, anti-His/anti-Flag; active compounds read high; P30305+P24941; z-score (test concentration not listed); 0.72% of 94,000 active;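 also: score is relative to mean and SD of negative controls; strong numbers were not always called active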
TAR Tat displ – HIV-1 TAR-Tat binding disruption; HIV-1 TAR RNA, Tat peptide displacement FRET; active compounds read high; z-score (concentration not given with the values); 0.6% of 100,000 active; AID 1259389;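 also: score is relative to mean and SD of negative controls; some compounds called inactive have numbers as strong as hits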
An asterisk follows results filed as active.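 The calls were made as follows: active = z-score from 3 up in half or more of its runs; inactive = the rest.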 Not a hit list (roughly 0.89% active in at least one column).

`CCc1ccc(CN2N=NC3C(=O)N(c4ccc(F)cc4)C(=O)C32)cc1` (stereo not drawn) gave CDC25B-CDK2 inh -0.84 and TAR Tat displ -0.49.
For COc1ccc(N2CCN(c3ncc4c(n3)CCN(Cc3ccc(N(C)C)cc3)C4)CC2)cc1 the results were TAR Tat displ 0.27.
For Cc1nnc2c3ccccc3nc(Nc3cccc(F)c3)n12 the results were CDC25B-CDK2 inh -0.59 and TAR Tat displ 0.87.
`O=C(CSc1nccc(C(F)(F)F)n1)c1cccnc1` gave CDC25B-CDK2 inh -2.53.
O=C(CSc1nc2ncccc2[nH]1)Nc1ccc2c(c1)OCO2 was read as TAR Tat displ 0.36.
Cc1ccc(NS(=O)(=O)c2ccc(-c3cnc(C4CC4)o3)cc2)cc1F was read as TAR Tat displ 1.77.
For O=C(CCc1ccccc1)N1N=C(c2ccc(Cl)cc2)CC1(O)C(F)(F)F (stereo not drawn) the results were CDC25B-CDK2 inh -2.06.
O=C(CSc1nnc(Cc2ccsc2)o1)c1cccc([N+](=O)[O-])c1 was read as CDC25B-CDK2 inh -2.64.
Screening Cn1nc(C(=O)Nc2ccc(Cl)cc2)c2c1-c1ccccc1OC2 returned CDC25B-CDK2 inh -0.85 and TAR Tat displ 0.61.
Screening CC(C)(C)c1ccc(C2NC(=O)NC(O)(C(F)(F)F)C2C(=O)c2ccc(F)cc2)cc1 (stereo not drawn) returned CDC25B-CDK2 inh -3.
`O=C(Cc1ccc(NC2=NC3CS(=O)(=O)CC3S2)cc1)N1CCC(Cc2ccccc2)CC1` (stereo not drawn) gave CDC25B-CDK2 inh 0.07.
COc1cc(OC)c(NS(=O)(=O)c2c(C)nc3sccn3c2=O)cc1Cl was read as TAR Tat displ -0.08.
`CC1CCCC(NC(=O)c2ccc(CSc3nc4ccncc4[nH]3)cc2)C1C` (stereo not drawn) gave CDC25B-CDK2 inh -0.72 and TAR Tat displ -0.41.
`Cc1c(C(=O)N(Cc2cccc(F)c2)C2CCS(=O)(=O)C2)oc2ccc(F)cc12` (stereo not drawn) gave CDC25B-CDK2 inh -1.02 and TAR Tat displ 1.43.
`CC(=O)N1c2ccc(S(=O)(=O)NC(C(=O)Nc3ccc(C)cn3)C(C)C)cc2CC1C` (stereo not drawn) gave TAR Tat displ -0.07.
For CCCc1nc2nc(C)c(NS(=O)(=O)Cc3ccccc3)c(=O)n2[nH]1 the results were CDC25B-CDK2 inh -1.34 and TAR Tat displ 0.96.
`Cc1cccc(N2CCN(c3ccc4nnc(C)n4n3)CC2)c1C` gave CDC25B-CDK2 inh -0.47 and TAR Tat displ -0.14.
`CCCCSc1nc2c(c(=O)[nH]1)C(c1cccc(F)c1)C(C(=O)OC(C)C)=C(C)N2` (stereo not drawn) gave CDC25B-CDK2 inh -0.78 and TAR Tat displ -0.13.
For CCOC(=O)c1cnn2c(C)cc(-c3ccc(OCC)cc3)nc12 the results were CDC25B-CDK2 inh -0.79 and TAR Tat displ -0.13.
Screening Cc1nnsc1-c1nc2cccc(C)c2c(=O)o1 returned CDC25B-CDK2 inh -1.95.
For Cc1ccc(S(=O)(=O)c2nnn3c2nc(NCc2ccc(F)cc2)c2sccc23)cc1 the results were TAR Tat displ -0.04.
Screening CCS(=O)(=O)c1nc(S(=O)(=O)c2ccc(Cl)cc2)c(NC)s1 returned CDC25B-CDK2 inh -2.21 and TAR Tat displ 0.97.
For COc1ccc([N+](=O)[O-])c(S(=O)(=O)c2ccc(Cl)cc2)n1 the results were CDC25B-CDK2 inh -0.19.
`CCCCN(Cc1ccco1)S(=O)(=O)c1ccc2c(c1)C(C)(C)C(=O)N2C` gave TAR Tat displ 0.05.
Screening Cn1c2ccccc2c2c(C(=O)N3CCCCCC3)cn(C3CCCCC3)c(=O)c21 returned CDC25B-CDK2 inh -2.72.
Screening O=C([C@@H](c1ccccc1)N1Cc2ccccc2C1=O)N1CCOCC1 returned CDC25B-CDK2 inh -1.35 and TAR Tat displ -0.24.
Screening Cc1nc(-c2csc(S(=O)(=O)Nc3cccc(F)c3)c2)no1 returned TAR Tat displ 1.46.
`CCOC(=O)N1CCC(NC(=O)c2nccnc2C(=O)Nc2ccc(C)cc2)CC1` gave CDC25B-CDK2 inh -3.42.
`Cc1noc2ncnc(N3CCC(C(=O)NCCCN4CCCCC4C)CC3)c12` (stereo not drawn) gave TAR Tat displ 0.94.
For CSc1cccc(N2C(=O)c3nccnc3C2=O)c1 the results were CDC25B-CDK2 inh 0.81 and TAR Tat displ 0.74.
COC(=O)CC(=O)NC(CSC(=O)Nc1ccc(SC(F)(F)F)cc1)C(=O)OC (stereo not drawn) was read as CDC25B-CDK2 inh -2.44.
Screening CCn1ncc(C2=NOC(C(=O)O)C2)c1C (stereo not drawn) returned CDC25B-CDK2 inh -1.46 and TAR Tat displ 2.08.
`Cc1onc(-c2ccccc2)c1C(=O)N=S(C)(=O)c1ccccc1` (stereo not drawn) gave CDC25B-CDK2 inh -0.57.
Screening CSc1ccc(CCNC(=O)Cn2nc(C)n3c(cc4sccc43)c2=O)cc1 returned CDC25B-CDK2 inh 0.3 and TAR Tat displ 0.25.
`COc1ccc(NCC(O)Cn2c(C)c(C)c3ccccc32)cc1` (stereo not drawn) gave CDC25B-CDK2 inh -4.1 and TAR Tat displ 0.77.
Screening CC1CC(C)(C)NC(=S)N1CCCC(=O)Nc1ccc(F)cc1 (stereo not drawn) returned CDC25B-CDK2 inh -0.87.
For O=C(NCCS(=O)(=O)N1CCc2ccccc2C1)C1CCCC1 the results were TAR Tat displ 1.18.
For Cc1noc(/C=C/N(C)C)c1S(=O)(=O)N1CCC(C(=O)NC(C)(C)C)CC1 the results were CDC25B-CDK2 inh 0.38 and TAR Tat displ -2.75.
`O=C(c1cc(-c2ccccn2)n[nH]1)N1CCN(C2CCCCC2)CC1` gave TAR Tat displ 1.54.
CCCC(=O)Nc1ccccc1SCc1cc(=O)n2nc(CCC)sc2n1 was read as TAR Tat displ -1.68.

By substructure, those above with an aryl thioether with sulfur outside any ring
`O=C(CSc1nccc(C(F)(F)F)n1)c1cccnc1` gave CDC25B-CDK2 inh -2.53.
O=C(CSc1nc2ncccc2[nH]1)Nc1ccc2c(c1)OCO2 was read as TAR Tat displ 0.36.
O=C(CSc1nnc(Cc2ccsc2)o1)c1cccc([N+](=O)[O-])c1 was read as CDC25B-CDK2 inh -2.64.
`CC1CCCC(NC(=O)c2ccc(CSc3nc4ccncc4[nH]3)cc2)C1C` (stereo not drawn) gave CDC25B-CDK2 inh -0.72 and TAR Tat displ -0.41.
`CCCCSc1nc2c(c(=O)[nH]1)C(c1cccc(F)c1)C(C(=O)OC(C)C)=C(C)N2` (stereo not drawn) gave CDC25B-CDK2 inh -0.78 and TAR Tat displ -0.13.
For CSc1cccc(N2C(=O)c3nccnc3C2=O)c1 the results were CDC25B-CDK2 inh 0.81 and TAR Tat displ 0.74.
COC(=O)CC(=O)NC(CSC(=O)Nc1ccc(SC(F)(F)F)cc1)C(=O)OC (stereo not drawn) was read as CDC25B-CDK2 inh -2.44.
Screening CSc1ccc(CCNC(=O)Cn2nc(C)n3c(cc4sccc43)c2=O)cc1 returned CDC25B-CDK2 inh 0.3 and TAR Tat displ 0.25.
CCCC(=O)Nc1ccccc1SCc1cc(=O)n2nc(CCC)sc2n1 was read as TAR Tat displ -1.68.

Other structures.
O=S(=O)(c1cn(Cc2noc(-c3cc4cc(Cl)ccc4[nH]3)n2)cn1)N1CCOCC1 was read as TAR Tat displ 1.79.
Screening CC(C)OCCCNC(=O)c1cnc(N2CCCC2)nc1 returned CDC25B-CDK2 inh -1.58 and TAR Tat displ 0.66.
`COc1cc(C2CC(=O)NC3=C2C(=O)CC(C)(C)C3)cc(Cl)c1O` (stereo not drawn) gave CDC25B-CDK2 inh -2.01 and TAR Tat displ -4.05.
`c1ccc(-c2nnc3ccc(N4CCC(c5ccccc5)C4)nn23)cc1` (stereo not drawn) gave CDC25B-CDK2 inh -0.69.
Screening CC(=O)Nc1ccc(C2Sc3ccccc3NC3=C2C(=O)c2ccccc23)cc1 (stereo not drawn) returned CDC25B-CDK2 inh 0.25 and TAR Tat displ -0.9.
Screening CSCCC1Oc2ccc(Cl)cc2C2CC(c3ccccc3O)=NN12 (stereo not drawn) returned CDC25B-CDK2 inh 0.43 and TAR Tat displ 1.71.
`CSc1nc2c(c(=O)n1C)C1(CCCC1)Cc1ccccc1-2` gave CDC25B-CDK2 inh 0.37 and TAR Tat displ 1.07.
Screening N#Cc1sc2nnc(-c3ccncc3)n2c1N returned CDC25B-CDK2 inh -1.43.
For CC(C)C(CO)NC(=O)Oc1ccccc1 (stereo not drawn) the results were CDC25B-CDK2 inh -0.86 and TAR Tat displ 1.36.
For CC1(C)CC(=O)C2=C(C1)Nc1ccccc1N(C(=S)Nc1ccccc1)C2c1ccco1 (stereo not drawn) the results were CDC25B-CDK2 inh -1.07.
`O=C(NC1CC1)c1cccn1-c1nnc(N2CCCCC2)s1` gave TAR Tat displ -0.37.
CCCOc1ccc(C2C(C(=O)OC3CCCC3)=C(C)NC3=C2C(=O)CCC3)cc1OC (stereo not drawn) was read as CDC25B-CDK2 inh 0.57 and TAR Tat displ 0.22.
For Nc1c(C(=O)NCc2ccco2)sc2nc(-c3ccncc3)ccc12 the results were CDC25B-CDK2 inh 12.1* and TAR Tat displ -3.52.
Screening O=C(Nc1cccnc1)c1cnn(-c2ccccc2)c1-n1cccc1 returned CDC25B-CDK2 inh 0.61 and TAR Tat displ 0.15.
CCC12CN3CC(CC)(CN(C1)C3c1ccc(O)c(OC)c1)C2O (stereo not drawn) was read as CDC25B-CDK2 inh -1.6 and TAR Tat displ -0.64.
For Cc1ccc(NC(=O)CSc2nnc(C)n3c2cc2occc23)c(C)c1 the results were TAR Tat displ -2.76.
`CCCCNc1nc(N2CCOCC2)c2cnn(C)c2n1` gave TAR Tat displ 1.13.
For Cc1cc(=O)n2nc(N(C)CC(=O)NCCCOC(C)C)sc2n1 the results were CDC25B-CDK2 inh -0.47 and TAR Tat displ -1.03.
For CC(=O)Nc1c2n(c3ccc(F)cc13)CC(C)(C(=O)NC1CCCCC1)N(Cc1ccco1)C2=O (stereo not drawn) the results were TAR Tat displ 1.4.
O=C(c1ccc(CSc2nc3ccncc3n2Cc2ccc(F)cc2)cc1)N1CCCC1 was read as CDC25B-CDK2 inh -0.88 and TAR Tat displ 1.02.
Cn1c2ccccc2c2c(C(=O)N3CCN(c4ccccc4)CC3)cn(C3CCCCC3)c(=O)c21 was read as CDC25B-CDK2 inh -2.23.
For Cc1cc(-c2ccc(S(=O)(=O)Nc3ccc4c(c3)OCO4)s2)on1 the results were TAR Tat displ 1.04.
Cc1cc(=O)n2c(C(=O)Nc3ccc(F)cc3)c(C(=O)Nc3ccccc3)sc2n1 was read as CDC25B-CDK2 inh -7.21 and TAR Tat displ -0.64.
`CC(=O)Nc1sc(=Nc2ccc(C)c(C)c2)n(C(C)=O)c1-c1ccc2c(c1)OCO2` gave CDC25B-CDK2 inh -0.1.
CC(=O)Nc1cccc(-c2cc(-c3c(Cl)cccc3Cl)no2)c1 was read as CDC25B-CDK2 inh -0.64.
CCc1cc2c(cc3c(=O)n(CC(=O)NCCCOC)ncn32)s1 was read as CDC25B-CDK2 inh -1.83.
For COc1ccc(N(C(=O)c2cccs2)S(=O)(=O)c2ccc3c(c2)n(C)c(=O)n3C)cc1 the results were CDC25B-CDK2 inh 0.37 and TAR Tat displ -0.16.
COc1cc(NC(=O)c2cccc(Br)c2)nc(OC)n1 was read as CDC25B-CDK2 inh 0.91 and TAR Tat displ 0.22.
For Cc1nnc(Sc2ccc(C=O)o2)s1 the results were CDC25B-CDK2 inh 0.09.
Cc1ccc(S(=O)(=O)NCCc2csc3nc(-c4cccs4)nn23)cc1C was read as TAR Tat displ -0.56.
`COC(=O)CSCC(=O)N1N=C(c2ccc(Br)cc2)CC1c1ccc(OC)cc1` (stereo not drawn) gave CDC25B-CDK2 inh -0.09.
CC1CCCN(c2cc3c(cc2F)c(=O)c(S(=O)(=O)c2ccc(Cl)cc2)cn3C)C1 (stereo not drawn) was read as TAR Tat displ -0.17.
COc1ccc(C(=O)c2cn(Cc3cccc(F)c3)c3cc4c(cc3c2=O)OCCO4)cc1OC was read as CDC25B-CDK2 inh 0.77 and TAR Tat displ -0.05.
For Cc1ccc(C2CC(=O)Nc3c2c(C)nn3-c2nc3ccccc3s2)c(C)c1 (stereo not drawn) the results were CDC25B-CDK2 inh -0.08 and TAR Tat displ 0.14.
For FC(F)(F)c1nc2ccc(Cl)cc2[nH]1 the results were CDC25B-CDK2 inh -1.37 and TAR Tat displ 2.22.
For CN(C(=O)c1oc(=O)c2ccccc2c1-c1ccccc1)c1ccccc1 the results were CDC25B-CDK2 inh -0.8 and TAR Tat displ 0.57.
For COC(=O)CCCCCCCC(=O)Nc1cc(C)on1 the results were CDC25B-CDK2 inh -0.77.
COc1ccc(OC)c(C2CCN(S(=O)(=O)c3cc(-c4onc(C)c4C)ccc3OC)C2)c1 (stereo not drawn) was read as TAR Tat displ -0.13.
For CCN1C(=O)c2ccccc2Sc2ccc(NC(=O)N3CCC(N4CCCCC4)CC3)cc21 the results were CDC25B-CDK2 inh 1.47 and TAR Tat displ -0.52.
Screening CCOc1ccc(-n2c(SCc3nc(-c4ccc(OC)cc4)no3)nnc2-c2ccncc2)cc1 returned CDC25B-CDK2 inh 0.9 and TAR Tat displ 2.91.
`CC1CCCC(NC(=O)C2(C)Cn3c(ccc3-c3ccco3)C(=O)N2Cc2ccco2)C1C` (stereo not drawn) gave TAR Tat displ -3.14.
`CCOC(=O)c1c(CSc2ccccn2)n(C)c2cc(Br)c(O)cc12` gave CDC25B-CDK2 inh -2.06 and TAR Tat displ 0.77.
`COc1ccccc1NC(=O)[C@H](CCS(C)(=O)=O)N1Cc2ccccc2C1=O` gave CDC25B-CDK2 inh -2.01 and TAR Tat displ 0.73.
O=C(NC1CCCC1)c1ccc2c(=O)n3nc(NCc4ccccc4)sc3nc2c1 was read as CDC25B-CDK2 inh -2.43 and TAR Tat displ 2.3.
`CCSc1nnc(NC(=O)CSc2nccn2-c2ccc(F)cc2)s1` gave CDC25B-CDK2 inh -2.71.
